gsp antag: antagonizes gsp, the McCune-Albright syndrome mutation. gsp-mutant cells, cAMP HTRF, 30 min; control for the full effect not named in the record. Potency, µM (titrated, usually from 76.9 µM), for inactives: at the highest dose activity change, negative = inhibition, actives largely listed as inhibitors. hit rate 0.4% among 340,000. AID 624288; active = falling curve of any shape with a large fitted effect; inconclusive = falling curve, mostly with a smaller effect; inactive = flat or rising curve; cell line not stated here;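 further: intracellular cAMP measured with PDE inhibitor Ro 20-1724 present during compound exposure; potency means the concentration at half of the fitted maximal effect; on the % scale 0 is the no-effect control and ±100 the full control effect; nearly all actives have a fitted effect of over 65% in size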
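Measurement of cellular cAMP by homogeneous time-resolved fluorescence following a 30 min compound exposure at 37C. The PDE inhibitor […] was present throughout; the assay buffer was DPBS with 0.05% BSA and 0.005% Tween 20.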
TRPML1 inh: inhibitors of human TRPML1 channel; Q9GZU1; TRPML1-inducible cells, Ca2+ dye fluorescence, FDSS; active compounds read low; inhibition of EC80 agonist-evoked calcium signal; activity change, negative = inhibition, % (no concentration beside the values); hit rate 0.02% among 390,000; in the data active means activity change below about -50%; inconclusive means about -30% to -50%; inactive means above about -30%;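 further: stimulus is agonist 54-4 at its EC80 concentration; on the % scale 0 is the no-effect control and ±100 the full control effect; compound concentration not given in the record; the text of the record puts the active cut at -80%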
Target sequence (Q9GZU1 whole entry, looked up): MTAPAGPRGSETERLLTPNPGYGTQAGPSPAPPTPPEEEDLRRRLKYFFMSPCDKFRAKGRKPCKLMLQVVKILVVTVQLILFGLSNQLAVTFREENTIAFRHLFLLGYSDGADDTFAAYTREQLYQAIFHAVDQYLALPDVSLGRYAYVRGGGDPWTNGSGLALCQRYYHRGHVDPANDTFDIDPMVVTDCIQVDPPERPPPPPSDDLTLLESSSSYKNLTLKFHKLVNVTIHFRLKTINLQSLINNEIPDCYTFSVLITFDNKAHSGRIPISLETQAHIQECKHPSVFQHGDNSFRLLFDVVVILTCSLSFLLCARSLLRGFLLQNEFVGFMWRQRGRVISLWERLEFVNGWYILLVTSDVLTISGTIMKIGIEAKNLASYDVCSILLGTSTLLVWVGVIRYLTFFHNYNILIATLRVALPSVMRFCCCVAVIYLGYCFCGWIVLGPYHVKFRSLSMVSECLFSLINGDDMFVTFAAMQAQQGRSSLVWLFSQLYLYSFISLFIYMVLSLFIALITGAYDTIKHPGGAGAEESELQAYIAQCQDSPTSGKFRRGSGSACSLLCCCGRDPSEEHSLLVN
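TRPML1-DL cells, Tet-induced overnight (~16 h, 37 °C) at 1,500 cells/well, were loaded with Ca8 no-wash dye plus quencher for 45-90 min at room temperature. Compounds were pinned during FDSS kinetic reading; agonist 54-4 at EC80 (4 uM final) then added.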
TRPML1 agonist: agonists of human TRPML1 channel; Q9GZU1; TRPML1-expressing cells, Ca2+ dye fluorescence, FDSS; host cell line not named in the record; reference of the full effect not given here; activation, % (test concentration not listed); hit rate 0.12% among 410,000; AID 624414; in the data active = activation above about 50%; inconclusive = about 30% to 50%; inactive = below about 30%; further: 0% is about no effect; the text of the record puts the active cut at 80%
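Agonist activity was taken from a 110 s kinetic Ca2+ dye read on the FDSS after pinning compounds onto TRPML1-DL cells. The cells were seeded at 1,500/well with Tet inducer, incubated about 16 h, then dye-loaded at room temperature.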
Menin-MLL FL inh: inhibitors of human menin-MLL interaction, wild-type MLL peptide; Fluorescence polarization, fluorescein-MLL peptide displacement from menin; FP activity change, % at 61.4 µM; 290,000 tested, under 10 active; AID 1766; inconclusive = falling polarisation curve, or a change in total fluorescence; inactive = total fluorescence flat and polarisation flat or rising; no compound was filed as active; the % refers to the polarisation; negative = inhibition;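 further: % of control where 0% means no effect; inhibitors lower the polarisation; unlabelled MLL peptide was the positive control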
ClpP mod: qHTS Assay for Activators of ClpP; Potency, µM (highest dose often 57.5 µM), for the others: top-dose activity change, negative = active; purified B. subtilis ClpP, FRET peptide cleavage, 20 min; AID 651965, 2013; hit rate 1.9% among 340,000; active = well fitted falling curve with a large enough effect; inconclusive = small, poorly fitted or top-dose-only effect; inactive = no such curve, though single readings can be large or run the other way; further: potency means the concentration at half of the fitted maximal effect; the source files actives as falling curves though it sought activators and does not explain the sign; nearly all actives have a fitted effect of over 65% in size; many hits overshoot -100%
Target sequence (P80244 whole entry, looked up): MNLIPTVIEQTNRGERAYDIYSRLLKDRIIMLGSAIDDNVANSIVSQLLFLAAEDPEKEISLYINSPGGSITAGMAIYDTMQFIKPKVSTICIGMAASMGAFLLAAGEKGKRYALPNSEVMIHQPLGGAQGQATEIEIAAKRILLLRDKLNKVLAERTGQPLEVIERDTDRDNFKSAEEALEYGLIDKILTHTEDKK
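Buffer: 100 mM Tris/HCl pH8, 100 mM KCl, 0.05% low protease BSA, 2.5% glycerol, 0.01% Tween-20. ClpP 10 microg/mL final; 20 min RT; delta FRET normalized to ADEP and DMSO controls.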
gsp agonist: agonists of gsp mutant (McCune-Albright syndrome) | Potency, µM (titrated, usually from 76.9 µM), for inactives: at the top dose activation (cAMP increase), most hits filed as activators | gsp mutant cells, cAMP HTRF, 30 min; control for the full effect not named in the record | AID 624287 | hit rate 0.13% among 340,000; active = well fitted activation curve with a large enough effect; inconclusive = small, poorly fitted or top-dose-only effect, or another doubt; inactive = no such curve, though single readings can be large or run the other way; cell line not stated here;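 further: phosphodiesterase inhibitor Ro 20-1724 added with compounds to block cAMP breakdown; potency means the concentration at half of the fitted maximal effect; nearly all actives have a fitted effect of over 60% in size; about a fifth of the inactives were tested at one dose only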
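Cells in DMEM/10% FBS with G418 were pretreated with compounds in DMSO plus […] (300 uM stock) for 30 min at 37C. cAMP was measured by HTRF (cAMP-d2 plus anti-cAMP antibody-K) after 30 min at room temperature.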
* marks the source's active call; other numbers are inactive results; u = inconclusive; x = no result given; & = joins results of further samples; [ ] = dose if it differs, or a comment.

Molecule | gsp antag | TRPML1 inh | TRPML1 agonist | Menin-MLL FL inh | ClpP mod | gsp agonist
CC(C)(CO)CN1CCC(n2nccc2NC(=O)C2CCCC2)CC1 | 3% | 16 | -0.3 | -4.1 | -1.7% | -8%
COCCN(C(=O)CCCc1nc2ccccc2s1)c1c(N)n(CC(C)C)c(=O)[nH]c1=O | 2% | 16 | -0.3 | x | -3.0% | 16%
O=S(=O)(NCc1ccc(F)cc1)c1ccccc1Br | 4% | -19 | -0.5&-0.9 | x | 1.3%&1.1% | -20%
CC(=O)Nc1cccc(C(=O)OCC(=O)c2ccccc2Cl)c1 | -9% | 5 | 0.9 | -2.1 | x | 7%[15.4 µM]
COc1ccc(C(=O)OCC(=O)N2CCCCC2)cc1[N+](=O)[O-] | 1% | -2 | -0.2 | -1.4 | x | u
CCN(CC)c1ccc(-c2nc3cnccc3n2C)cc1 | -11% | 9 | -0.1 | 3.4 | u | 7%
NC(=O)CSc1nnc(Cn2c(=O)sc3ccccc32)n1-c1ccccc1 | 10% | 39 | 0.6 | 0.0 | 0.7% | -27%
CCc1cccc(C)c1Nc1nc2ccccc2n2cnnc12 | -1% | 10 | -1.6 | 7.1 | 0.6% | -2%[15.4 µM]
CNC(=O)CSc1nc2cc(S(=O)(=O)Nc3ccc(OC)cc3)ccc2o1 | -14% | 5 | 1.2 | x | -0.7% | -35%[inhibitor]
COc1ccc2oc(C(=O)OCC(=O)N3CCC(C)CC3)c(C)c2c1 | -14% | 6 | 2.0 | -0.2 | 3.3% | 9%
CCCOc1cccc(C(=O)N2CCN(C(=O)C3CCCO3)CC2)c1 (configuration not stated) | 3% | 19 | 0.9 | x | -6.4% | 3%
CC(C)NC(=O)COc1ccc2c(c1)C(=O)CC(C)(C)O2 | 1% | 9 | 0.3 | 4.6 | 4.7% | 5%
CC(C)(CNC(=O)c1ccccc1F)CNC(=O)c1ccccc1F | -2% | -25 | 1.1 | x | x | -2%
CC(=O)COc1ccc2c(-c3ccccc3)cc(=O)oc2c1C | 1% | 12 | -0.3 | -0.3 | -2.2% | -10%[15.4 µM]
O=c1cc(-c2ccc(O)c(O)c2)oc2cc(O)c([C@@H]3O[C@H](CO)[C@@H](O)[C@H](O)[C@H]3O)c(O)c12 | 6% | 33&-13 | 1.3&0.7 | 12 | -1.5% | x
Cc1c(-c2nc(-c3ccccc3)no2)nnn1-c1cccc(C(F)(F)F)c1 | x | 15 | -0.7 | x | 0.5% | x
Cn1cccc1C(=O)OCc1cc(-c2ccco2)on1 | 16% | 31 | 0.8 | x | -0.7% | -29%
CC(C)(C)NC(=O)c1cccc2c1OC(C)(C)C2 | 2% | 9 | 0.0 | 8.9 | 0.7% | -3%[15.4 µM]
CCOC(=O)Cc1csc(N/N=C/c2ccccc2)n1 | -9% | 9 | 0.9 | 14 | x | 12%
CC1(C(=O)NS(=O)(=O)c2ccccc2)CCN1C(=O)c1ccccc1 (configuration not stated) | x | 7 | 0.1 | x | -2.0% | x
COc1ccc2c(c1)[C@H]1[C@H](CO2)[C@H](c2ccccc2)[C@]2(C)C(=O)Nc3cc(C)ccc3C(=O)N12 | -16% | 27 | -0.8 | x | -17% | x
CCC(=O)c1ccc(OCC(=O)Nc2cccc(S(=O)(=O)N(C)c3ccccc3)c2)cc1 | 28µM* | -5 | 2.0 | x | -0.4% | -3%
O=C(Nc1ccccc1)C(=O)Nc1cccnc1 | 5% | -1 | -0.5 | 3.0 | 0.8% | 11%[15.4 µM]
COC(=O)C(C(C)=O)C1=C/C(=N\S(=O)(=O)c2ccc(C)cc2)c2ccccc2C1=O (configuration not stated) | -17% | -6 | 0.1 | 5.0 | 2.3% | -12%
O=C1c2cccnc2C(=O)N1C1CCCCC1 | 15% | -11 | 1.1 | 2.1 | 0.4% | 2%
CC(NC(=O)Nc1ccccc1F)C(C)(C)C (configuration not stated) | 4% | -11 | 0.0 | -1.4 | -0.7% | -1%
CCn1c(SCC(=O)N/N=C/c2c[nH]c3ccccc23)nnc1-c1ccc(C(C)(C)C)cc1 | -17% | 29 | 2.4 | 2.5 | -3.1% | 0%
C=CCn1c(SC(C)C(=O)NCc2ccc3c(c2)OCO3)nc2scc(-c3ccccc3)c2c1=O (configuration not stated) | -22% | -4 | 1.9 | 3.4 | -5.6% | -2%
C/C(=N\Nc1ccc(Cl)c(C(=O)O)c1)c1ccc2c(c1)OCO2 | 16% | 9 | -0.4 | 1.5 | -2.7% | 10%[15.4 µM]
O=C(NNc1ccccc1F)C1CCC1 | 8% | -6 | 0.2 | 4.5 | 0.4% | -1%[15.4 µM]
O=C(NCc1nc(-c2ccccc2)no1)Nc1ccc(F)cc1 | -4% | 34 | 1.7 | -1.0 | x | u
COc1cc(/C=C(\C#N)c2nnc(N3CCOCC3)n2-c2ccccc2)ccc1O | -22% | 1 | 1.3 | u | -0.7% | -39%
CCN(CC)S(=O)(=O)c1ccc(C(=O)NC(=S)N(CCC#N)Cc2cccnc2)cc1 | u | 22 | -0.2 | -0.6 | 0.4% | -13%
Cc1ccnc(N2CCC(C(=O)Nc3ccc4c(c3)OCCO4)CC2)n1 | 9% | -25 | -0.6 | 0.8 | -21% | -20%
Nc1ccc(-c2cnc(-c3ccc(N)cc3)nc2)cc1 | -5% | -14 | 0.7 | 1.4 | -4.9% | -3%
CN(C)S(=O)(=O)c1ccc(C(=O)OCC(=O)c2csc(N3CCCCC3)n2)cc1 | -5% | -13 | 0.2 | x | -0.7% | -8%
NC1=NC(=Nc2cccc(Cl)c2)c2ccccc21 | 19% | 5 | -0.1 | -1.7 | -1.1% | 3%
CCc1ccc(NC(=O)CN(CC(=O)Nc2ccc(CC)cc2)CC(C)O)cc1 (configuration not stated) | -13% | 4 | 1.9 | -1.0 | 2.3% | -2%
O=C(Nc1cc(Sc2ccccn2)cc([N+](=O)[O-])c1)c1cccc(Cl)c1 | -6% | 5 | 1.9 | 3.0 | -2.8% | 0%
O=C(c1cc2nc(-c3ccccc3)cc(-c3ccccc3)n2n1)N1CCN(C(=O)c2ccco2)CC1 | -16% | 8 | 1.1 | 1.3 | -15% | 42%
CCNC(=O)O/N=C(\C)c1sc(-c2ccccc2)nc1C | -18% | 4 | -0.3 | -3.2 | -0.9% | -6%
COc1ccc(Cn2ccc3nc(C)c(C(=O)N4CCN(c5ccccc5)CC4)cc3c2=O)cc1 | x | -14 | 0.6 | x | 1.2% | x
CC(C)(C)NC(=O)NC(=O)COC(=O)c1cccc(OC(F)F)c1 | 5% | -5 | -0.2 | -1.1 | 0.6% | -25%
O=C(CNC(=O)c1ccc(Br)cc1)OCC(=O)c1ccccc1 | 4% | -3 | 0.6 | x | -1.1% | -53%[inhibitor]
O=C(Nc1ccc(C(=O)N2CCCCC2)cc1)C1CCCCC1 | 5% | 0 | -1.0 | 1.0 | 0.2% | 11%
Cn1nnnc1SCC(=O)NCc1cc([N+](=O)[O-])ccc1O | 8% | 11 | -0.1 | 4.6 | x | -3%
COc1ccc(COCC(O)CN2CCCCC2)cc1OC (configuration not stated) | 2% | -6 | 0.2 | -3.1 | -2.8% | -29%
CCN(CC)CCNCc1ccc(OCc2ccc(Cl)nc2)c(OC)c1 | 9% | -7 | -0.4 | -8.8 | -1.3% | -29%
CC1C/C(=N/O)C(C)CN1 (configuration not stated) | 7%[15.4 µM] | 2 | 0.4 | -1.4 | 1.7% | u
CN(C)c1ccc(NC(=O)CSc2nc3ccccc3c(=O)n2C2CCCCC2)cc1 | -13% | 27 | -1.0 | 2.3 | -0.3% | -4%
Cc1cccc2cc(C#N)c(NCCNS(=O)(=O)c3ccc4c(c3)OCCO4)nc12 | 2% | -6 | 0.4 | 2.7 | 32µM* | 26%
COC(=O)CN1C(=S)N(c2ccc(OC)cc2)C(=O)/C1=C/c1ccc(OC)cc1 | -4% | -2 | -0.2 | u | x | -13%
Cc1c(CCC(=O)N[C@@H](C)C(=O)O)c(=O)oc2cc3occ(-c4ccccc4)c3cc12 | -11% | -16 | 2.0 | 6.2 | -23% | 30%
O=c1c2c(nc3nc(COc4ccccc4)[nH]n13)CCC2 | -11% | 13 | 0.3 | 0.1 | -1.0% | -17%
Cc1cc(C)c(C)c(Cn2c(CO)nc3ccccc32)c1C | -4% | -5 | 1.1 | 1.1 | 0.4% | -1%
COC(=O)c1c(NC(=O)c2cc3nc(-c4ccc(OC)cc4)cc(C(F)(F)F)n3n2)sc2c1CCCC2 | x | 0 | 0.0 | x | 28µM* | x
O=C(OCC(=O)N1CCC(Cc2ccccc2)CC1)c1ccccc1 | -7% | 7 | 1.5 | 0.5 | x | 3%[15.4 µM]
O=C(COc1ccc(-n2cnnn2)cc1)NC1CCCCC1 | 5% | 4 | 0.1 | 1.8 | 2.4% | 9%
Cn1c(=O)c2c(SCC(=O)NCc3ccco3)nc(-c3ccccc3F)nc2n(C)c1=O | x | 2 | -0.3 | x | -0.4% | x
CCN(CCO)C(=O)CC1C(=O)NCCN1Cc1c(F)cccc1Cl (configuration not stated) | 11% | 1 | 1.0 | -1.8 | x | -13%[15.4 µM]
CC(Sc1nnc(NC2CCCCC2)s1)C(=O)Nc1ccc2c(c1)C(=O)c1ccccc1C2=O (configuration not stated) | -34% | -7 | -0.5 | 4.0 | 1.0% | 14%
Cc1c(Cl)cccc1NC(=O)Cn1cnc(S(=O)(=O)N2CCCC2)c1 | 2% | -2&-3 | -0.1&-0.7 | x | -2.5%&1.3% | -7%
COC(=O)C(Cc1ccccc1)NS(=O)(=O)c1cc(Br)ccc1Br (configuration not stated) | x | 9 | 3.9 | -3.6 | x | x

Two entries from above, with each value named:
CCN(CCO)C(=O)CC1C(=O)NCCN1Cc1c(F)cccc1Cl (configuration not stated)
  gsp antag = 11% | TRPML1 inh = 1 | TRPML1 agonist = 1.0 | Menin-MLL FL inh = -1.8 | ClpP mod = x | gsp agonist = -13%[15.4 µM]

CC(Sc1nnc(NC2CCCCC2)s1)C(=O)Nc1ccc2c(c1)C(=O)c1ccccc1C2=O (configuration not stated)
  gsp antag = -34% | TRPML1 inh = -7 | TRPML1 agonist = -0.5 | Menin-MLL FL inh = 4.0 | ClpP mod = 1.0% | gsp agonist = 14%

gsp antag, what is marked active above.
canonical_smiles	gsp antag	TRPML1 inh	Menin-MLL FL inh	gsp agonist
CCC(=O)c1ccc(OCC(=O)Nc2cccc(S(=O)(=O)N(C)c3ccccc3)c2)cc1	28µM*	-5	x	-3%

From PubChem
